# CDC25B CDK2 inh = human CDC25B-CDK2/CyclinA binding inhibition. P30305+P24941. HTRF CDC25B-CDK2/CyclinA binding, anti-His/anti-Flag; stronger effect = higher value. z-score (no concentration beside the values). actives 0.72% (n = 94,000);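 note: score is relative to mean and SD of negative controls; strong numbers were not always called active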
# TAR Tat displ = HIV-1 TAR-Tat binding disruption | AID 1259389 | z-score (concentration not given with the values) | actives 0.6% (n = 100,000) | HIV-1 TAR RNA, Tat peptide displacement FRET; stronger effect = higher value;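 note: score is relative to mean and SD of negative controls; some compounds called inactive have numbers as strong as hits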
# * hit, by the source's call; . = not tested or not shown; & = joins results of further samples.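 Rule for the calls: active = z-score from 3 up in half or more of its runs; inactive = the rest.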
# Below each SMILES: CDC25B CDK2 inh, TAR Tat displ
> Cc1nc([N+](=O)[O-])cn1CC(O)c1ccc2c(c1)OCO2 (configuration not stated)
→ 1.05, .
> CC1(C)C(=O)OC(c2ccccc2F)C(C)(C)C1=O (configuration not stated)
→ -0.27, 1.23
> Cc1ccc(-c2csc(N)n2)cc1C
→ -0.8, -7.62
> Cc1ccc2ncc(C(=O)N3CCN(c4ccccc4Cl)CC3)c(=O)n2c1
→ -2.14, -1.32
> CC1=C(C(=O)OC2CCCCC2)C(c2ccc(OCc3ccccc3)cc2)NC(=O)N1 (configuration not stated)
→ 0.41, .
> Oc1[nH]c2ccccc2c1N=Nc1nc(-c2ccc(Br)cc2)cs1
→ -1.76, .
> CC1CCN(c2ccc3nnc(CCC(=O)Nc4cc(F)ccc4F)n3n2)CC1
→ ., 0.92
> COc1ccc(-c2nc(-n3c(C)c4c(C)nnc(C)c4c3C)sc2C)cc1
→ -0.23, 0.56
> CCCCc1c(O)nc(SCC(=O)N2CCCCC2)[nH]c1=O
→ -2.05, 1.55
> CN(C)CCCN(C(=O)c1ccc2c(c1)OCCO2)c1nc2c(Cl)cccc2s1
→ ., 2.37
> CC1(C)COCN1S(=O)(=O)c1ccc(C(=O)Nc2nnc(-c3ccc(Cl)s3)o2)cc1
→ 0.89, .
> Cc1ccc2nc(Nc3cccc(Cl)c3)c3nnnn3c2c1
→ ., -0.01
> CC1CC(=O)Nc2cc(S(=O)(=O)N(C)CCCc3ccco3)ccc2S1 (configuration not stated)
→ ., 0.48
> Cc1nn(C)c2ncc(NC(=O)Nc3ccc(C(F)(F)F)cc3)c(Cl)c12
→ -1.13, .
> COc1cnc(CSc2ncccn2)cc1OCC(=O)Nc1ccc(F)cc1
→ ., 1.78

# Remaining list, next part
# Below each SMILES: CDC25B CDK2 inh, TAR Tat displ
> COc1ccc(-n2nnc(-c3nc(-c4ccc(Br)cc4)no3)c2N)cc1
→ ., -0.16
> COc1ccc(-c2c3c(=O)n(C)c(=O)n(C)c3c3n2C(C)(C)COC3c2cccc(OC)c2)cc1 (configuration not stated)
→ -0.11, 1.91
> CCOCCCNc1cc(=O)n(-c2ccccc2)nc1C(=O)OCC
→ ., 1.29
> COc1ccc2cc(NC(=O)NC3CCCc4ccccc43)n(C)c2c1 (configuration not stated)
→ -0.61, 0.09
> O=c1cc(CO)oc(C(Nc2ccccn2)c2ccc(C(F)(F)F)cc2)c1O (configuration not stated)
→ -0.28, .
> COc1ccc(OC)c(NC(=O)CSc2nccn2C)c1
→ -2.04, 2.45
> CC(CC(=O)N1CCOCC1)S(=O)(=O)c1ccc2c(c1)NC(=O)CS2 (configuration not stated)
→ ., -6.99
> CCOC(=O)c1c(NC(=O)CSc2ncnc3c2oc2ccccc23)sc2c1CCC2
→ -1.08, .
> O=C(N1CCCCC1)C12CC3CC(CC(C3)C1)C2
→ -0.37, .
> O=C1c2cccnc2C(=O)N1Cc1ccc(S(=O)(=O)N2CCCC3CCCCC32)cc1 (configuration not stated)
→ ., 0.52
> COc1ccc(OC2CCN(S(=O)(=O)c3ccc(OC)cc3)CC2)cc1
→ 0.61, -0.73
> CCCNC(=O)CN1C(=O)CSc2ccc(S(=O)(=O)N(CC)CC)cc21
→ -0.96, .
> CC(C)OCCCNc1nc2c(S(=O)(=O)c3ccccc3)nnn2c2ccccc12
→ -1.57, -0.46
> O=C(Nc1ccc(F)c(Cl)c1)C1CCN(S(=O)(=O)c2cccnc2)CC1
→ 0.06, .
> Cn1cc(S(=O)(=O)N2CCCC2)cc1C(=O)N1CCCc2ccccc21
→ ., 1.47

# In another format: results already given.
compound: CC(CC(=O)N1CCOCC1)S(=O)(=O)c1ccc2c(c1)NC(=O)CS2 (configuration not stated)
  CDC25B CDK2 inh: .
  TAR Tat displ: -6.99

compound: COc1ccc(OC)c(NC(=O)CSc2nccn2C)c1
  CDC25B CDK2 inh: -2.04
  TAR Tat displ: 2.45

compound: COc1ccc2cc(NC(=O)NC3CCCc4ccccc43)n(C)c2c1 (configuration not stated)
  CDC25B CDK2 inh: -0.61
  TAR Tat displ: 0.09

compound: CCOC(=O)c1c(NC(=O)CSc2ncnc3c2oc2ccccc23)sc2c1CCC2
  CDC25B CDK2 inh: -1.08
  TAR Tat displ: .

# Other compounds
# Below each SMILES: CDC25B CDK2 inh, TAR Tat displ
> O=C(CC(c1ccccc1)C1CCCCC1=O)c1ccco1 (configuration not stated)
→ 0.99, .
> CCOC(=O)Cc1nnc2c3ccccc3n(C)c2n1
→ -0.73, -0.34
> CCc1ccc2[nH]cc(S(=O)(=O)c3ccccc3)c(=O)c2c1
→ -0.74, -0.42
> CC(=O)OC1=CN(C(C)C)S(=O)(=O)c2ccccc21
→ -0.64, 0.44
> COc1ccc(-c2csc(-c3nc(-c4ccc5c(c4)OCO5)cs3)n2)cc1F
→ -2.76, -0.73
> Fc1ccccc1C1CC(c2ccc(Cl)cc2)Nc2nnnn21 (configuration not stated)
→ ., 3.32
> COc1ccc(Cn2c(CO)cnc2SC)cc1
→ ., 2.32
> O=C(O)c1nccnc1C(=O)Nc1ccc(F)c(Cl)c1
→ -0.56, 14.8
> Cc1ccc(CN(C(=O)c2cc(=O)c3ccc(C)c(C)c3o2)C2CCS(=O)(=O)C2)cc1 (configuration not stated)
→ -0.92, 2.1
> CCN1C(=O)c2cc(C(=O)NCc3ccco3)nn2CC1(C)C(=O)NC1CCCC1 (configuration not stated)
→ ., -0.68
> CCN(C(=O)Cn1ncc2c1-c1cc(C)ccc1OC2)c1ccc(C)c(C)c1
→ -2.34, .
> O=C(NCc1cccnc1)C1CCCN(c2nn3c(=O)c4c(nc3s2)CCCC4)C1 (configuration not stated)
→ ., 0.82
> CC(C)(C)OC(=O)N[C@@H](Cc1ccccc1)C(=O)NNC(=S)CC1CCCO1 (some centres not stated)
→ -0.86, .
> Cc1[nH]c2ccccc2c1C(=O)CN1CCOCC1
→ -2.78, 0.17
> O=C(CCS(=O)(=O)c1cc(Br)cc2c1N(C(=O)C1CC1)CC2)NC1CCCC1
→ -1.28, .

# (continued)
# Below each SMILES: CDC25B CDK2 inh, TAR Tat displ
> Nc1nc(-c2ccccc2)nn1C(=O)c1ccccn1
→ -0.67, -0.3
> N#Cc1c(Cl)ncc2c1Nc1ccccc1C2Sc1ccccc1 (configuration not stated)
→ -6.46, .
> Cc1nn(-c2nc3ccc(Br)cc3s2)c2c1C(c1cccc(Cl)c1)CC(=O)N2 (configuration not stated)
→ ., 1.18
> O=C(c1ccc(F)cc1F)C1CCN(C(=O)c2cccs2)CC1
→ -1.58, .
> CCC1CN(S(=O)(=O)c2cc(-c3noc(C)n3)cs2)c2cc(Cl)ccc2O1 (configuration not stated)
→ ., 1.45
> O=c1[nH]c(SC/C=C/c2ccccc2)nc2sc3c(c12)CCC3
→ 0.13, .
> NC(=O)c1c(/N=C/c2cc(Br)ccc2O)sc2c1CCCC2
→ 0.26, .
> Cc1c2cnn(-c3ccccc3)c(=O)c2c(C)n1C(C)C(=O)Nc1ccccc1Br (configuration not stated)
→ -0.38, 0.18
> C=CCNC(=S)/N=C(\N)N1CCOCC1
→ -0.74, .
> Cc1cc(C)c(Cn2cccc2CNC(=O)NCC2CCCO2)c(C)c1 (configuration not stated)
→ ., -1.04
> O=C1CC(c2ccc(F)cc2)Cc2nc(N3CCOCC3)ncc21 (configuration not stated)
→ -0.02, .
> Cc1ccnc(SCCn2c(N3CCCCCC3)nc3c2c(=O)[nH]c(=O)n3C)n1
→ 0.7, .
> Cc1c(C(=O)O)sc(=S)n1-c1ccc(Cl)cc1
→ -2.6&1.12, 2.2
> C(=C(c1ccccc1)c1ccccc1)N1CCC1
→ -2.61, .
> CCN(CC)C(=O)Cn1cc(C(=O)C(=O)N2CCN(c3ccccc3)CC2)c2ccccc21
→ ., 1.02

# Going on with the list:
# Below each SMILES: CDC25B CDK2 inh, TAR Tat displ
> Cc1nc2nc(C(F)(F)F)[nH]n2c(=O)c1Cc1ccccc1
→ -1.36, 0.9
> O=c1c(SCc2ccccc2)nccn1-c1cccc(Cl)c1
→ ., -0.27
> Cn1c(C(=O)NCCC2=CCCCC2)cc2oc3ccccc3c21
→ -2.96, 0.28
> O=C(COc1ccccc1Cl)Nc1nc(-c2ccc(Br)o2)ns1
→ -1.81, 1.21
> COc1ccc(OCC(=O)Nc2ccc(N3CCCS3(=O)=O)cc2)cc1
→ ., -0.2
> O=C(CCc1nnc2ccc(N3CCCC3)nn12)NCc1ccc(F)cc1
→ ., 0.97
> O=C(NCCN1CCOCC1)c1ccc2c(c1)N(Cc1ccccc1)C(=O)CS2
→ -1.25, .
> CCN(CC)S(=O)(=O)c1cc(-c2nnc(-c3ccc(Br)cc3)o2)ccc1Cl
→ -0.28, -0.2
> CC1CCC(NC(=O)C2CCN(S(=O)(=O)c3ccc4[nH]c5c(c4c3)CCCCC5)CC2)CC1 (configuration not stated)
→ ., -0.19
> CCOC(=O)c1cnc2ccc(Br)cc2c1NCC(C)O (configuration not stated)
→ 0.2, -0.67
> CN(CCCN1C(=O)c2ccc(-c3ccco3)n2CC1(C)C(=O)NC1CCCCC1)C1CCCCC1 (configuration not stated)
→ ., -0.64
> O=C1c2[nH]nc(-c3ccccc3O)c2C(c2ccc(O)cc2)N1Cc1ccncc1 (configuration not stated)
→ -0.6, 0.14
> CCOC(=O)CSc1nnc(-c2ccccc2)c(=O)[nH]1
→ 2.11, -0.43
> O=c1[nH]c2ccc(S(=O)(=O)NCc3ccccc3F)cc2s1
→ 0.34, .
> O=c1cc(O)c2sc3nc(-c4cccs4)cc(C(F)(F)F)c3c2[nH]1
→ -1.3, -7.98

# The list continues:
# Below each SMILES: CDC25B CDK2 inh, TAR Tat displ
> CCOc1cccc2c1Oc1nc(-c3cccc(O)c3)[nH]c(=O)c1C2
→ -1.26, 1.76
> Cc1ccc(NS(=O)(=O)c2cc(-c3onc(C)c3C)ccc2C)c(C)c1
→ ., 0.51
> O=C(CS(=O)(=O)Cc1cccc(C(F)(F)F)c1)NNC(=O)c1cccc(Cl)c1
→ -0.94, .
> CC(C)C(NC(=O)C(C)N(c1ccccc1)S(C)(=O)=O)C(C)C (configuration not stated)
→ 0.27, 1.43
> COC(=O)c1cc(-c2ccc(S(=O)(=O)Nc3ccccc3F)s2)on1
→ ., -0.12
> N#Cc1c(-n2ncnc2-c2ccccc2)sc2c1CCCC2
→ -1.24, 1.98
> O=C(Nc1ccccc1F)c1ncoc1-c1ccco1
→ ., 0.72
> CCOC(=O)c1c(C)oc2ncnc(N3CCC(c4ccccc4)C3)c12 (configuration not stated)
→ -1.88, 0.16
> CS(=O)(=O)NCCc1csc(-c2ccc(Cl)cc2)n1
→ ., -0.41
> CC1Cc2nc(SCC(N)=O)n(-c3ccc(F)cc3)c(=O)c2S1 (configuration not stated)
→ -2.4, 0.4
> Fc1ccc(CSc2nnnn2-c2ccc3c(c2)OCO3)c(Cl)c1
→ -0.67, 0.77
> O=C(NC1CCCC1)C1CC(c2ccccc2F)=NO1 (configuration not stated)
→ 0.15, 1.1
> CCC(C(=O)N1CCc2ccccc21)n1nc(-c2cc(C)ccc2C)ccc1=O (configuration not stated)
→ 1.18, 1.1
> COc1cc2nc(SCc3cc(=O)n4ccccc4n3)n3nc(C)nc3c2cc1OC
→ -1.69, .
> CCc1ccccc1NC(=O)c1scc(Br)c1OC
→ -0.36, .

# Next part
# Below each SMILES: CDC25B CDK2 inh, TAR Tat displ
> CC(C)n1c(=O)c2c3c(sc2n(C)c1=O)COC(C)(C)C3
→ -1.34, -0.4
> Cc1[nH]c(C)c(S(=O)(=O)Nc2ccc3c(c2)OCO3)c1C(=O)N1CCCCC1
→ ., 2.01
> Nc1nc2ccc(CC(=O)O)cc2s1
→ -0.03, 0.37
> COc1ccc(S(=O)(=O)[C@H]2CS(=O)(=O)C[C@@H]2NCc2ccco2)cc1
→ -0.76, -0.75
> Cc1nc(-n2cnc3cc(C)c(C)cc32)c2c3c(sc2n1)CCC3
→ -2.38, 1.52
> CC1=C(C(=O)NCCN2CCCCC2C)C2(CCN(S(C)(=O)=O)CC2)OC1=O (configuration not stated)
→ ., -1.38
> NC(=O)C1CCN(C(=O)c2ccc3nc(-c4ccc(F)cc4)c(-c4ccc(F)cc4)nc3c2)CC1
→ ., 0.5
> Cc1oc2ccc(O)cc2c1C(=O)OC(C)C
→ -1.68, -0.99
> CCOc1ccc(C2Nn3c(C)nnc3SC2C(=O)N(CC)CC)cc1 (configuration not stated)
→ 1.01, 0.22
> Cc1nc(-c2ccc(S(=O)(=O)N3CCN(c4ccc(F)cc4)CC3)cc2)co1
→ ., -0.56
> CCCCc1nn2c(=O)cc(COC(=O)c3ccco3)nc2s1
→ ., 0.55
> CC(C)NC(=O)Nc1ccc2sc(NS(=O)(=O)c3ccccc3)nc2c1
→ ., 0.84
> CC1CCC(Nc2ncnc3onc(-c4ccc(F)cc4)c23)CC1 (configuration not stated)
→ ., 0.36
> CCOC(=O)c1ccc(-n2nc(C)cc2C)cc1
→ -0.19, .
> CCOC(=O)C(=O)Nc1nc2ccc(S(C)(=O)=O)cc2s1
→ 0.51, -0.33

# Continuation.
# Below each SMILES: CDC25B CDK2 inh, TAR Tat displ
> Cc1nc2sccn2c(=O)c1NC(=O)C1CCCCC1
→ ., 1.29
> CC1(C)C(=O)NC(=O)N1C(=O)c1ccccc1
→ 0.94, 0.59
> Cc1[nH]c2ccccc2c1C(Nc1ccccn1)c1ccc(Cl)cc1 (configuration not stated)
→ ., 0.88
> CCN(Cc1ccccc1)c1c(-c2ccccc2)c(=O)c1=O
→ ., 2.03
> C=CCSC1=C(C#N)C(c2cccc(Cl)c2)CC(=O)N1 (configuration not stated)
→ -0.27, -0.47
> O=C1CN(S(=O)(=O)c2cc(F)ccc2CN2C(=O)c3cccnc3C2=O)c2ccccc2N1
→ ., 2.06
> COC(=O)c1nnn(-c2ccccc2)c1N
→ ., 0.05
> Cc1c(C(=O)N2CCCC2)oc2c1-c1nn(CC(=O)NC3CCCc4ccccc43)cc1CC2 (configuration not stated)
→ ., 2.7
> COc1ccc(-c2cccc(NS(=O)(=O)c3ccccc3F)c2)nn1
→ ., 0.67
> CCCCNC(=O)c1cc2c(C)cc(C)cc2[nH]1
→ -0.57, .
> Cc1c(NC(=O)C(C)C)c(-n2cnnc2)nn1C
→ -2.18, 0.58
